ID4 SMM – binders of human ID4 protein; small molecule microarray, Flag-ID4 binding, fluorescence F/B; calls only; 31,000 tested, 1.2% active; AID 624137;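 active = spot signal over background at p below 0.07 in all four prints; compounds were printed on slides so no solution concentration is given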;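 note: a binder raises fluorescence above local background on the spot; about 2 pmol printed per array spot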
Target sequence (P47928 whole entry, looked up): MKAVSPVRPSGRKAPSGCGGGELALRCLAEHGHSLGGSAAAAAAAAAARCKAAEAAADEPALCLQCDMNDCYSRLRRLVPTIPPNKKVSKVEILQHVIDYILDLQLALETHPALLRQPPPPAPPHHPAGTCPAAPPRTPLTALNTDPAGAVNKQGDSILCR
Calls only; i = inactive; + = active, no number.

canonical_smiles | ID4 SMM
O=C(CSc1nnc(-c2cccc(Cl)c2)n1-c1ccccc1)Nc1ccc(F)c(F)c1 | i
CCn1c2ccccc2c2cc(NS(=O)(=O)c3ccccc3[N+](=O)[O-])ccc21 | i
O=C(Nc1cccnc1)C1CC(c2c(F)cccc2Cl)=NO1 (configuration not stated) | i
C[C@@H]1CN([C@@H](C)CO)C(=O)c2cc(-c3ccccc3F)cnc2O[C@H]1CN(C)Cc1ccccc1 | i
O=C(COc1ccc(N2CC(C(=O)O)CC2=O)cc1)Nc1ccc(Cl)c(Cl)c1 (configuration not stated) | i
Cc1ccc(NC(=O)COc2ccc3cc(-c4ccc(F)cc4)c(=O)oc3c2)cc1 | i
COc1cccc(OCC(=O)Nc2cc([N+](=O)[O-])ccc2OC)c1 | i
CCc1cc(=O)oc2cc(C)cc(OCC(=O)C(C)(C)C)c12 | i
CC(C)CC#Cc1cnc2c(c1)C(=O)N([C@H](C)CO)C[C@H](C)[C@H](CN(C)C(=O)c1ccc(F)cc1)O2 | i
COC(=O)c1ccccc1NC(=O)Cn1cnc([N+](=O)[O-])c1 | i
COc1ccccc1-c1cnc2c(c1)C(=O)N([C@H](C)CO)C[C@H](C)[C@@H](CN(C)Cc1ccccc1)O2 | i
C[C@H](CO)N1C[C@H](C)[C@@H](CN(C)C(=O)C2CCC2)Oc2ncc(C#CCc3ccccc3)cc2C1=O | i
COc1ccc(OC)c(NC(=O)COc2ccc3c(=O)c(-c4ccc(OC)c(OC)c4)c(C(F)(F)F)oc3c2)c1 | i
C[C@@H]1CN([C@@H](C)CO)C(=O)c2cc(C#CC3CC3)cnc2O[C@H]1CN(C)C(=O)C1CCCCC1 | i
COc1ccccc1S(=O)(=O)N[C@@H]1CC[C@@H](CC(=O)N2CCCCC2)O[C@@H]1CO | i
CCc1c(O)nc(SCC(=O)Nc2ccc(OC)cc2)n(-c2ccccc2)c1=O | i
Cc1sc2ncn(CC(=O)Nc3ccc(Oc4ccccc4)cc3)c(=O)c2c1C | i
Cc1ccc(Oc2ncccc2NS(=O)(=O)c2ccc(-c3ccccn3)s2)c2c1CCC2 | i
Cc1cccc(N(CC(=O)Nc2ccc(F)cc2)S(C)(=O)=O)c1C | i
COc1ccccc1NC(=O)CSc1ncc(-c2ccccc2)nn1 | i
C[C@H](O)C#Cc1ccc2c(c1)O[C@H](CN(C)Cc1ccccn1)[C@H](C)CN([C@H](C)CO)S2(=O)=O | i
CC(C)CC#Cc1cnc2c(c1)C(=O)N([C@H](C)CO)C[C@@H](C)[C@H](CN(C)Cc1ccccc1C(=O)O)O2 | i
COc1ccc2cc(C(=O)NCc3ccco3)c(=O)oc2c1 | i
c1ccc2c(c1)N1CCCCCC1N2Cc1ccncc1 (configuration not stated) | i
C/C=C/c1ccc2c(c1)O[C@H](CN(C)CC1CC1)[C@H](C)CN([C@H](C)CO)S2(=O)=O | i
CS(=O)(=O)N(CC(=O)Nc1c(F)cccc1F)Cc1ccccc1 | i
COc1ccc(NC(=O)CN(c2ccc(Br)c(C)c2)S(C)(=O)=O)cc1OC | i
COC(=O)C[C@@H]1CC[C@@H](NC(=O)c2ccccc2)[C@@H](CO)O1 | i
C[C@@H]1CN([C@@H](C)CO)S(=O)(=O)c2ccc(C3=CCCC3)cc2O[C@H]1CN(C)Cc1cccc(C(=O)O)c1 | i
C[C@@H]1CN([C@@H](C)CO)C(=O)c2cc(-c3ccc(C#N)cc3)cnc2O[C@@H]1CN(C)Cc1ccccn1 | i
CO[C@@H](CN(C)C(=O)c1ccccc1F)[C@H](C)CN([C@@H](C)CO)S(=O)(=O)c1ccc(Cl)cc1 | i
CCCC#Cc1ccc2c(c1)O[C@@H](CN(C)C(=O)c1cnccn1)[C@@H](C)CN([C@@H](C)CO)S2(=O)=O | i
COC(=O)c1ccc(C(=O)OC)c(NC(=O)CN2C(=O)c3cccc4cccc2c34)c1 | i
Cc1cccc(-n2c(N)cc(=O)nc2SCC(=O)Nc2ccccc2C#N)c1 | i
CC(C)c1cn(CC[C@@H]2CC[C@@H](NC(=O)C3CCCC3)[C@@H](CO)O2)nn1 | i
CC1(C)C(=O)[C@@H]2C[C@@]3(O)C4=CC(=O)O[C@@H](c5ccoc5)[C@]4(C)CCC3[C@@](C)(C2=O)[C@H]1CC(=O)O (some centres not stated) | i
CC(Oc1ccc(Cl)cc1Cl)C(=O)Nc1ccc2oc(-c3ccncc3)nc2c1 (configuration not stated) | i
CC(C)C#Cc1cnc2c(c1)C(=O)N([C@@H](C)CO)C[C@H](C)[C@@H](CN(C)C(=O)C1CCC1)O2 | i
C[C@@H]1CN([C@H](C)CO)C(=O)c2cc(-c3cccc(F)c3)cnc2O[C@H]1CN(C)CC1CCOCC1 | i
C[C@@H]1CN([C@@H](C)CO)C(=O)CCCn2cc(nn2)CO[C@@H]1CN(C)Cc1ccccc1C(F)(F)F | i

Of the compounds above, these have an aryl methoxy group.
canonical_smiles | ID4 SMM
COc1cccc(OCC(=O)Nc2cc([N+](=O)[O-])ccc2OC)c1 | i
COc1ccccc1-c1cnc2c(c1)C(=O)N([C@H](C)CO)C[C@H](C)[C@@H](CN(C)Cc1ccccc1)O2 | i
COc1ccc(OC)c(NC(=O)COc2ccc3c(=O)c(-c4ccc(OC)c(OC)c4)c(C(F)(F)F)oc3c2)c1 | i
COc1ccccc1S(=O)(=O)N[C@@H]1CC[C@@H](CC(=O)N2CCCCC2)O[C@@H]1CO | i
CCc1c(O)nc(SCC(=O)Nc2ccc(OC)cc2)n(-c2ccccc2)c1=O | i
COc1ccccc1NC(=O)CSc1ncc(-c2ccccc2)nn1 | i
COc1ccc2cc(C(=O)NCc3ccco3)c(=O)oc2c1 | i
COc1ccc(NC(=O)CN(c2ccc(Br)c(C)c2)S(C)(=O)=O)cc1OC | i

Remaining list, next part.
canonical_smiles | ID4 SMM
C[C@@H]1CN([C@H](C)CO)S(=O)(=O)c2ccc(C#CC3CC3)cc2O[C@@H]1CN(C)Cc1ccccc1 | i
Cc1nnn(C23CC4CC(CC(C(=O)NC5CCCCCC5)(C4)C2)C3)n1 | i
COc1ccc(OC)c(NC(=O)CN(c2ccc(F)c(Cl)c2)S(C)(=O)=O)c1 | i
C[C@@H]1CN([C@H](C)CO)C(=O)CCCn2cc(nn2)CO[C@H]1CN(C)Cc1ccccc1C(F)(F)F | i
N#Cc1ccc(NC(=O)CCN2C(=O)c3ccccc3C2=O)cc1 | i
CNC[C@@H]1Oc2cc(C#Cc3ccccc3F)ccc2S(=O)(=O)N([C@@H](C)CO)C[C@H]1C | i
O=C(C[C@H]1C=C[C@H](NC(=O)Nc2cc(F)ccc2F)[C@@H](CO)O1)NCCCN1CCOCC1 | i
O=C(CSc1nc2[nH]ncc2c(=O)n1-c1ccccc1)Nc1nsc(-c2ccccc2)n1 | i
Cc1ccc(NC(=O)CSc2ncccn2)cc1C | i
O=C(Nc1ccccc1C(=O)O)c1cccc(S(=O)(=O)Nc2ccccc2)c1 | i

> CS(=O)(=O)N(CC(=O)Nc1ccc2c(c1)OCCO2)c1cccc(F)c1
- ID4 SMM: i
> C[C@H](CO)N1C[C@H](C)[C@H](CN(C)C(=O)Nc2ccc(C(F)(F)F)cc2)Oc2ncc(C#C[C@@H](C)O)cc2C1=O
- ID4 SMM: i
> C[C@H](CO)N1C[C@H](C)[C@@H](CN(C)CC2CCCCC2)OCc2cn(nn2)CCCC1=O
- ID4 SMM: +
> O=C(C[C@@H]1C[C@@H]2c3cc(NC(=O)NC4CCCC4)ccc3O[C@@H]2[C@@H](CO)O1)NCc1ccc(Cl)cc1
- ID4 SMM: i
> C[C@H](CO)N1C[C@H](C)[C@H](CN(C)CC2CC2)OCc2cnnn2CCCC1=O
- ID4 SMM: i
> Cc1ccc(NC(=O)CCCN2C(=O)c3ccccc3C2=O)c([N+](=O)[O-])c1
- ID4 SMM: i
> CC(C)CC#Cc1cnc2c(c1)C(=O)N([C@@H](C)CO)C[C@H](C)[C@@H](CN(C)Cc1ccccn1)O2
- ID4 SMM: i
> C[C@@H]1CN([C@@H](C)CO)C(=O)c2ccccc2-c2ccccc2CO[C@@H]1CN(C)S(=O)(=O)Cc1ccccc1
- ID4 SMM: i
> Cc1nnc(SCC(=O)Nc2ccc(Br)cc2F)s1
- ID4 SMM: i
> N#C[C@H]1[C@@H](c2ccccc2)[C@@H](CO)N1C(=O)Nc1cccc(F)c1
- ID4 SMM: i
> O=C(Cc1ccccc1)N[C@H]1C=C[C@H](CC(=O)N2CCOCC2)O[C@@H]1CO
- ID4 SMM: i
> C[C@@H]1CN([C@H](C)CO)C(=O)c2cc(Br)cnc2O[C@@H]1CN(C)C(=O)Cc1ccccc1
- ID4 SMM: i
> COc1ccc(NC(=O)COc2ccc(Cl)c(C)c2)c([N+](=O)[O-])c1
- ID4 SMM: i
> CC(C)N(Cc1nc(-c2ccccc2)no1)S(=O)(=O)c1ccc(Br)cc1
- ID4 SMM: i
> COc1nc(Oc2ccc(=O)[nH]n2)nc(N2CCOCC2)n1
- ID4 SMM: i
> COC(=O)c1cc(NC(=O)CN(c2ccccc2F)S(C)(=O)=O)ccc1Cl
- ID4 SMM: i
> CO[C@@H](CN(C)C(=O)c1cnccn1)[C@H](C)CN([C@@H](C)CO)S(=O)(=O)c1ccc(F)cc1
- ID4 SMM: i
> COc1ccc(Br)cc1CNCCN1CCOCC1
- ID4 SMM: i
> O=C(N[C@@H]1C=C[C@@H](CC(=O)N2CCc3ccccc3C2)O[C@@H]1CO)C1CC1
- ID4 SMM: i
> COc1cccc(CNC(=O)C[C@H]2C=C[C@H](NC(C)=O)[C@@H](CO)O2)c1
- ID4 SMM: i
> CCCN(C)C[C@H]1Oc2cc(C#CCC(C)C)ccc2S(=O)(=O)N([C@@H](C)CO)C[C@H]1C
- ID4 SMM: i
> COc1cccc(-c2cnc3c(c2)C(=O)N([C@@H](C)CO)C[C@H](C)[C@H](CN(C)Cc2ccccc2)O3)c1
- ID4 SMM: i
> COCCNC(=O)C[C@H]1C[C@@H]2c3cc(NC(=O)Nc4ccccc4)ccc3O[C@@H]2[C@@H](CO)O1
- ID4 SMM: i
> N#Cc1c(NC(=O)CSc2nnc(-c3ccccc3O)n2-c2ccccc2)sc2c1CCCC2
- ID4 SMM: i
> Cc1cccc(OCC(=O)Nc2ccccc2CO)c1C
- ID4 SMM: i

> O=C(O)C1C2CCC(O2)C1C(=O)Nc1ccc(S(=O)(=O)N2CCc3ccccc32)cc1 (configuration not stated)
- ID4 SMM: i
> C[C@H]1CN([C@@H](C)CO)C(=O)c2cc(C#Cc3ccccn3)cnc2O[C@@H]1CN(C)CC1CCOCC1
- ID4 SMM: i
> Cc1ccsc1C1C(C(=O)c2ccco2)C(=O)C(=O)N1Cc1ccco1 (configuration not stated)
- ID4 SMM: i
> CCCN(C)C[C@@H]1Oc2cc(C#Cc3ccccc3F)ccc2S(=O)(=O)N([C@H](C)CO)C[C@@H]1C
- ID4 SMM: i
> COc1ccc(OC)c(S(=O)(=O)N(C)CC(=O)Nc2ccc(F)cc2)c1
- ID4 SMM: i
> Cc1cccc(C(=O)O)c1NC(=O)C(C)Oc1ccc(Cl)cc1Cl (configuration not stated)
- ID4 SMM: i
> COC(=O)c1ccccc1NC(=O)NCc1cccnc1
- ID4 SMM: i
> CO[C@H](CN(C)C(=O)C1CCOCC1)[C@@H](C)CN([C@@H](C)CO)S(=O)(=O)c1ccccc1
- ID4 SMM: i
> Cc1ccc(N(CC(=O)Nc2cc(Cl)ccc2Cl)S(C)(=O)=O)cc1C
- ID4 SMM: i
> CCOC(=O)c1c(-c2ccc(C)o2)csc1NC(=S)NC(=O)N(C)C
- ID4 SMM: i
> COc1ccc(C(C)(C)C)cc1NC(=S)Nc1ccc(S(=O)(=O)Nc2ncccn2)cc1
- ID4 SMM: i
> C[C@@H]1CN([C@@H](C)CO)C(=O)c2cc(C3=CCCC3)cnc2O[C@@H]1CN(C)Cc1ccccc1F
- ID4 SMM: i
> O=C(O)c1cc([N+](=O)[O-])ccc1NCCCc1ccccc1
- ID4 SMM: i
> CC(=O)N1C(=S)NC(=O)/C1=C/c1c(Cl)cccc1Cl
- ID4 SMM: i
> CNC[C@@H]1Oc2ncc(-c3ccccc3F)cc2C(=O)N([C@H](C)CO)C[C@@H]1C
- ID4 SMM: i
> O=C(NCc1ccccn1)C(=O)Nc1ccc(Cl)c(Cl)c1
- ID4 SMM: i
> O=C(NC1CCCCC1)N[C@H]1CC[C@@H](CC(=O)N2CCOCC2)O[C@H]1CO
- ID4 SMM: i
> C[C@@H]1CN([C@@H](C)CO)C(=O)c2ccccc2-c2ccccc2CO[C@@H]1CN(C)C(=O)[C@@H](Cc1ccccc1)N(C)C
- ID4 SMM: i
> O=C(Cn1ccc([N+](=O)[O-])n1)Nc1ccc(F)c(Cl)c1
- ID4 SMM: i
> COc1ccc(-c2nc(SCc3ccc(OC)c([N+](=O)[O-])c3)n[nH]2)cc1
- ID4 SMM: i
> COc1ccc(-c2c(C#N)c(SCC(N)=O)nc(C)c2C(=O)Nc2ccccc2)cc1
- ID4 SMM: i
> CC(C(=O)Nc1cc(Cl)ccc1Oc1ccccc1)N(c1ccccc1)S(C)(=O)=O (configuration not stated)
- ID4 SMM: i
> Cc1ccccc1-c1nc(S(=O)(=O)c2ccc(Cl)cc2)c(NCC2CCCO2)o1 (configuration not stated)
- ID4 SMM: i
> Nc1nc(SCC(=O)NCC2CCCO2)n[nH]1 (configuration not stated)
- ID4 SMM: i
> C/C=C/c1ccc2c(c1)O[C@H](CN(C)S(=O)(=O)c1ccc(F)cc1)[C@H](C)CN([C@H](C)CO)S2(=O)=O
- ID4 SMM: i

> C[C@@H]1CN([C@H](C)CO)C(=O)c2cc(C#CCc3ccccc3)cnc2O[C@H]1CN(C)Cc1cccnc1
- ID4 SMM: i
> C[C@H]1CN([C@@H](C)CO)S(=O)(=O)c2ccc(C3=CCCCC3)cc2O[C@@H]1CN(C)C
- ID4 SMM: i
> C[C@@H]1CN([C@H](C)CO)C(=O)c2cc(Br)cnc2O[C@H]1CN(C)C
- ID4 SMM: i
> Cc1ccc(NC(=O)CSc2nc3ccccc3s2)cc1Cl
- ID4 SMM: i
> C=CCN1Cc2ccccc2[C@H]2OC(c3ccc(OCCCO)cc3)=N[C@@]2(CCC(=O)OC(C)(C)C)C1=O
- ID4 SMM: i
> COc1ccc(NC(=O)CSc2nc(-c3cccs3)cc(C(F)(F)F)c2C#N)cc1
- ID4 SMM: i
> Cn1c(SCC(=O)Nc2ccc(Cl)cc2)nc2sc3c(c2c1=O)CCCC3
- ID4 SMM: i
> O=S(=O)(Nc1ccc(O)c(Sc2nc3ccccc3s2)c1)c1cccc2cccnc12
- ID4 SMM: i

Source: PubChem (Broad Institute)

An excerpt; rates above refer to the full screens.
